# Screens deposited in PubChem by several laboratories.
# RecA splice inh: Mtb RecA intein splicing inhibition. 290,000 tested, 0.75% active. inhibition, %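 (about 9 µM by stock and volumes)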. P9WHJ3. cell-free RecA intein splicing, fluorescence; in the data active = inhibition above about 30%; inconclusive = no clear call, values can overlap the other calls;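 also: 0% = vehicle wells and 100% = reference inhibitor control wells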
# Target sequence (P9WHJ3 whole entry, looked up, canonical isoform): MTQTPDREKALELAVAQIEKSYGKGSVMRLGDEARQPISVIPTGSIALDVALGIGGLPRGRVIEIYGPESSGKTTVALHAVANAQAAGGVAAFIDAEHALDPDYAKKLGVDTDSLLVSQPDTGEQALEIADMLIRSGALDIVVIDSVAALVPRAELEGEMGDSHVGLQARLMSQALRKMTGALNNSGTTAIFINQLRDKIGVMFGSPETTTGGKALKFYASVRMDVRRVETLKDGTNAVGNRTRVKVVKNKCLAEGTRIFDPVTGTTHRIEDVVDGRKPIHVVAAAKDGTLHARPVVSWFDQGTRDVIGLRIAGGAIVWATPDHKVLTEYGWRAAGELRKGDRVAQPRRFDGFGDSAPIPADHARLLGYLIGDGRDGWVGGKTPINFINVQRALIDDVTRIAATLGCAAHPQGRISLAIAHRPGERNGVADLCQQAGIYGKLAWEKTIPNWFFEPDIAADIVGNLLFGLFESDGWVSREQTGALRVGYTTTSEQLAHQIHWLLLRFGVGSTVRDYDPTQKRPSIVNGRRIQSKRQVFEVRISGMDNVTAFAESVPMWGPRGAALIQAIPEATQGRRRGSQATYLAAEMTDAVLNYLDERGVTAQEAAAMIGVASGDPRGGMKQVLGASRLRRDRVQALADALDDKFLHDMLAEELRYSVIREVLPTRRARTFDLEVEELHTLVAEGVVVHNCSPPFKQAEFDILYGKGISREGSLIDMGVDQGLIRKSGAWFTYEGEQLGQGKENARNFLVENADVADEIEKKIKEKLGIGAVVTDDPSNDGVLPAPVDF
# Arbovirus anti: blocks arbovirus infection | arbovirus infection cell-based antiviral screen | inhibition, % at 10 µM | 200,000 tested, 0.37% active | AID 1251;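 active = inhibition from about 30%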;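 also: bluetongue infection of BSR cells; cell survival read as ATP light after 72 h; 0% = infected wells without compound and 100% = uninfected wells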
# YopH inh: inhibitors of Yersinia enterocolitica YopH tyrosine phosphatase; fluorescence Ex485/Em525; inhibition, %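 (about 10 µM by stock and volumes)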; 140,000 tested, 0.16% active; AID 898;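 active = inhibition of 50% or more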;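 also: controls were vehicle for no effect and minimum signal wells for full effect; inactives centre near -20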
# Mtb H37Rv: M. tuberculosis H37Rv growth inhibitors, H37Rv strain (AID 1626) | M. tuberculosis H37Rv growth inhibition; higher % means a stronger effect | inhibition, % at 10 µM; hits with a dose series show IC50 in µM | 220,000 tested, 0.95% active;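 active = confirmed in a dose series; inconclusive = inhibition above 80% but not taken into the dose series; inactive = below 80% or under 30% at every dose of the series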;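 also: bacteria incubated seven days before Alamar blue readout; 0% = bacteria only wells and 100% = bacteria with antibiotic wells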
# Mtb bLac sens: beta-lactam sensitization of Mtb H37Rv | M. tuberculosis H37Rv growth with meropenem, percent inhibition; hits of this screen are not shown here | inhibition, % at 25 µM | 330,000 tested, 0.27% active;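 active = about 74% or more and at least 40 points above the plate without the antibiotic, then above 30% in a dose series; inconclusive = first-round hits that could not be retested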;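 also: growth measured after seven days incubation then overnight dye step; 0% = bacteria only wells and 100% = bacteria with antibiotic; twin plates without the antibiotic show which effects depend on it; some results filed as inactive read as strong as hits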
# Arbovirus anti repeat: recorded beside Arbovirus anti, whose call it bears; inhibition, %; measured here: 10K subset replicate screen; many hits read low in the repeat;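 first of two repeat runs on a subset; 0% = infected and 100% = uninfected wells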
# Numbers without * were called inactive; ? = inconclusive; nt = not tested or not shown. This is a subset, so the mix of outcomes need not match the whole.
SMILES,RecA splice inh,Arbovirus anti,YopH inh,Mtb H37Rv,Mtb bLac sens,others
Cc1cc(-c2ccccc2)nc2cc(C(=O)OC(C)C)nn12,-0.3,nt,nt,nt,3.2,
O=c1cc(Nc2ccc3c(c2)OCCO3)[nH]c(=O)n1Cc1ccc(F)cc1,0.7,15.0,30.2,3.5%,-1.9,
COC(=O)CCN(C)CCC(=O)OC,1.2,-2.0,-14.0,3.0%,-4.1,
Cc1c(-c2cc(C(=O)O)on2)cnn1C,-0.8,5.0,nt,-4.2%,-5.1,
CCn1nnnc1NCc1ccc(SC)cc1,1.5,nt,nt,nt,0.8,
COc1ccc(C(CC(=O)Nc2ccccn2)N2Cc3ccccc3C2=O)cc1OC (configuration not stated),-2.5,nt,nt,nt,-1.7,
COc1cccc(CSc2nc3ccccc3cc2C=O)c1,9.2,-4.2,-6.8,6.3%,20.7,
CCN(CC)S(=O)(=O)c1ccc(N2CCCC2)c(NC(=O)Cc2cc(OC)c(OC)c(OC)c2)c1,3.7,nt,nt,nt,-4.1,
Cc1ccc(C)c(NC(=O)COC(=O)Cc2ccsc2)c1,0.4,9.1,nt,-13.3%,3.6,
CC1CCN(C(=O)CCNC(=O)Cn2cnc3sc4c(c3c2=O)CCCC4)CC1,0.3,2.3,-21.8,-6.8%,-4.2,
C=CCSC1=C(C#N)C(c2ccccc2C)CC(=O)N1 (configuration not stated),18.7,10.0,2.3,2.0%,-12.8,
O=[N+]([O-])c1ccc(Sc2ncccn2)c([N+](=O)[O-])c1,17.3,nt,nt,56.6%,96.9,
O=C1CC(c2ccccc2)CC(O)=C1C=Nc1cccc(Cl)c1 (configuration not stated),-1.6,1.3,-22.4,-0.9%,2.0,
Cc1ccc(Cc2c(C)nc3nc(SCC(=O)NCCCN4CCOCC4)nn3c2C)cc1,-0.2,13.1,nt,1.4%,6.8,
CN(C)CCNC(=O)/C(=C/c1ccc(-c2cccc(Cl)c2)o1)NC(=O)c1ccccc1,-3.9,-38.6,-17.3,5.9%,3.3,
C/C(=N\NC(=O)c1ccccc1F)c1ccc(C#N)cc1,4.4,1.4,nt,-2.0%,14.5,
Cn1c(=N)n(CC(=O)c2ccccc2)c2ccccc21,-1.2,nt,nt,-3.3%,7.2,
Cc1nnc(SC(C)C(=O)Nc2nccs2)s1 (configuration not stated),-1.3,1.7,nt,-1.4%,2.5,
Nc1n[nH]c(-c2ccccc2)c1-c1ccccc1,2.0,0.0,-42.0,-3.7%,21.5,
CCN(CC)CCNC(=O)CCc1nn(C)c(=O)c2ccccc12,-1.4,7.9,-24.2,8.1%,-5.7,
CN(C)C(CNc1nnnn1-c1ccccc1)c1ccco1 (configuration not stated),0.7,1.0,-7.0,1.7%,-2.4,
CCO[C@H]1OC(C(=O)NC2CC2)=C[C@@H](C2CC2)[C@@H]1CCCO,1.0,5.5,nt,-9.1%,-7.7,
CC(NC(=O)CSCc1ccc(Br)cc1)c1ccccc1 (configuration not stated),1.2,-6.5,nt,-1.4%,-6.6,
CCN(CC)S(=O)(=O)c1ccc(Cl)c(C(=O)Oc2cccnc2)c1,26.8,8.7,-35.5,-12.0%,-7.2,
CCOC(=O)C(C(=O)OCC)N(C#N)c1nc(C)cc(C)n1,-1.3,2.2,-5.2,-14.0%,8.2,
CCOC(=O)N/N=C(\C)c1ccc(Oc2ncccn2)cc1,-0.8,nt,nt,nt,-1.5,
O=C1CC(N2CCN(c3ccc(F)cc3)CC2)C(=O)N1c1ccc2c(c1)OCO2 (configuration not stated),-3.1,1.3,nt,3.4%,-4.6,
CCOc1ccc(/C=N/Nc2nncc(-c3ccccc3)n2)cc1OC,-4.0,7.7,nt,2.7%,-3.9,
Cn1cnnc1SCC(=O)NCCc1ccc(Cl)cc1Cl,-5.2,5.2,nt,0.7%,-3.0,
CCOC(=O)c1c2c(n(C)c1COC)C(=O)C(=O)c1ccc(Br)cc1-2,11.2,nt,80.1*,-6.7%,?,
O=C(Nc1ccccc1Cc1ccccc1)c1ccccc1NS(=O)(=O)c1ccc(Cl)s1,12.6,-40.4,-40.5,-2.9%,-1.4,
O=C(Nc1ccccc1)C1CCN(C(=O)c2ccccc2)CC1,-0.4,8.8,-15.5,-4.6%,1.6,
Cc1onc(-c2ccccc2Cl)c1C(=O)Nc1ccc(-c2nnc3n2CCCCC3)cc1,1.4,-3.1,-34.3,5.9%,-4.3,
Cc1nnc(SCCCn2c(N3CCCCC3)nc3c2c(=O)[nH]c(=O)n3C)s1,-1.7,3.3,-38.4,-4.9%,13.5,
Cc1ccc2c(c1)CNc1ccccc1O2,-1.0,4.3,-36.6,0.1%,-3.9,
CCOc1ccc(NC(=O)c2c(OC)cccc2OC)cc1,-1.4,-5.7,nt,2.5%,0.6,
O=C(NC1CCN(C(=O)NCc2ccccc2)CC1)c1cccc(F)c1,3.1,nt,nt,nt,-4.4,
CCCCS(=O)(=O)Nc1ccc2ncn(C)c(=O)c2c1,7.1,-3.3,-34.8,-10.8%,-1.9,
O=C(Oc1coc(CSc2ncccn2)cc1=O)c1ccc(Br)o1,0.1,-4.5,-19.4,1.7%,-2.0,
NC(=O)CC(NC(=O)Cc1ccc(Br)cc1)c1ccc(NCCc2ccc(Cl)cc2)c([N+](=O)[O-])c1 (configuration not stated),1.6,nt,nt,6.2%,nt,
CC(C)(C)NC(=O)CSc1nc(O)cc(=O)n1-c1ccccc1,6.4,8.0,-4.1,-1.7%,-0.8,
CCN(CC)CCN(Cc1cc2cc(C)ccc2[nH]c1=O)C(=S)Nc1ccccc1,-0.3,4.1,nt,-0.9%,-0.7,
Nc1nc(Br)c2c(F)cccc2c1-c1ccccc1,-2.3,3.4,-11.0,nt,60.5,
CN(NS(=O)(=O)c1ccc(Cl)cc1)c1cnn(C)c(=O)c1Cl,1.4,nt,nt,-2.2%,-3.2,
Cn1c(COc2ccc(F)cc2)nc2ccccc21,0.8,nt,nt,nt,-0.6,
O=C1CC(C(=O)N(c2ccccc2)C(C(=O)NC2CCCC2)c2ccncc2)CS1 (configuration not stated),0.2,1.0,nt,0.0%,-1.7,
O=C(NCCCCNC(=O)C1CCCC1)C1CCCC1,-3.2,2.6,-34.8,-11.1%,4.1,
FC(F)(F)c1nc2ccccc2nc1N/N=C/c1ccc(Cl)cc1,-7.9,-3.7,-2.1,5.6%,7.8,

# At a glance, part of the list above.
SMILES,RecA splice inh,Arbovirus anti,YopH inh,Mtb H37Rv,Mtb bLac sens,others
O=C1CC(c2ccccc2)CC(O)=C1C=Nc1cccc(Cl)c1 (configuration not stated),-1.6,1.3,-22.4,-0.9%,2.0,
Cc1ccc(Cc2c(C)nc3nc(SCC(=O)NCCCN4CCOCC4)nn3c2C)cc1,-0.2,13.1,nt,1.4%,6.8,
CN(C)CCNC(=O)/C(=C/c1ccc(-c2cccc(Cl)c2)o1)NC(=O)c1ccccc1,-3.9,-38.6,-17.3,5.9%,3.3,
C/C(=N\NC(=O)c1ccccc1F)c1ccc(C#N)cc1,4.4,1.4,nt,-2.0%,14.5,
Cn1c(=N)n(CC(=O)c2ccccc2)c2ccccc21,-1.2,nt,nt,-3.3%,7.2,
Cc1nnc(SC(C)C(=O)Nc2nccs2)s1 (configuration not stated),-1.3,1.7,nt,-1.4%,2.5,
Nc1n[nH]c(-c2ccccc2)c1-c1ccccc1,2.0,0.0,-42.0,-3.7%,21.5,
CCN(CC)CCNC(=O)CCc1nn(C)c(=O)c2ccccc12,-1.4,7.9,-24.2,8.1%,-5.7,
CN(C)C(CNc1nnnn1-c1ccccc1)c1ccco1 (configuration not stated),0.7,1.0,-7.0,1.7%,-2.4,
CCO[C@H]1OC(C(=O)NC2CC2)=C[C@@H](C2CC2)[C@@H]1CCCO,1.0,5.5,nt,-9.1%,-7.7,
CC(NC(=O)CSCc1ccc(Br)cc1)c1ccccc1 (configuration not stated),1.2,-6.5,nt,-1.4%,-6.6,
CCN(CC)S(=O)(=O)c1ccc(Cl)c(C(=O)Oc2cccnc2)c1,26.8,8.7,-35.5,-12.0%,-7.2,
CCOC(=O)C(C(=O)OCC)N(C#N)c1nc(C)cc(C)n1,-1.3,2.2,-5.2,-14.0%,8.2,
CCOC(=O)N/N=C(\C)c1ccc(Oc2ncccn2)cc1,-0.8,nt,nt,nt,-1.5,
O=C1CC(N2CCN(c3ccc(F)cc3)CC2)C(=O)N1c1ccc2c(c1)OCO2 (configuration not stated),-3.1,1.3,nt,3.4%,-4.6,
CCOc1ccc(/C=N/Nc2nncc(-c3ccccc3)n2)cc1OC,-4.0,7.7,nt,2.7%,-3.9,
Cn1cnnc1SCC(=O)NCCc1ccc(Cl)cc1Cl,-5.2,5.2,nt,0.7%,-3.0,
CCOC(=O)c1c2c(n(C)c1COC)C(=O)C(=O)c1ccc(Br)cc1-2,11.2,nt,80.1*,-6.7%,?,
O=C(Nc1ccccc1Cc1ccccc1)c1ccccc1NS(=O)(=O)c1ccc(Cl)s1,12.6,-40.4,-40.5,-2.9%,-1.4,
O=C(Nc1ccccc1)C1CCN(C(=O)c2ccccc2)CC1,-0.4,8.8,-15.5,-4.6%,1.6,
Cc1onc(-c2ccccc2Cl)c1C(=O)Nc1ccc(-c2nnc3n2CCCCC3)cc1,1.4,-3.1,-34.3,5.9%,-4.3,
Cc1nnc(SCCCn2c(N3CCCCC3)nc3c2c(=O)[nH]c(=O)n3C)s1,-1.7,3.3,-38.4,-4.9%,13.5,

# (further entries)
SMILES,RecA splice inh,Arbovirus anti,YopH inh,Mtb H37Rv,Mtb bLac sens,others
CCc1ccc(N(CC(=O)NCc2cccnc2)S(=O)(=O)c2ccccc2)cc1,2.4,nt,nt,nt,6.2,
O=C1C(C=NCc2ccccn2)=C(O)c2ccccc21,1.2,1.0,-14.6,-9.8%,8.0,
COc1cc(C)c(C(N)=O)c(OC)n1,-2.1,-0.3,-18.9,-1.4%,-5.2,
COC(=O)c1ccccc1NC(=O)Nc1ccc2c(c1)OCO2,2.8,-3.5,-20.0,-3.2%,-0.7,
Cc1nccc2[nH]c(=O)c(C(=O)NC3CCCCC3C)cc12 (configuration not stated),-1.0,-16.8,-19.0,0.5%,59.8,
CCN1CCN(c2ccc(NC(=O)c3ccc(C#N)cc3F)cc2Cl)CC1,2.9,-21.1,nt,-6.3%,-15.8,
O=C(c1cc([N+](=O)[O-])ccc1N1CCCCC1)N1CCCCC1,-1.2,8.8,-31.8,6.5%,-2.9,
Cc1nn(C)c(Cl)c1/C=N/OC(=O)c1ccccc1,1.0,4.8,nt,72.0%,25.6,
CCCn1c(N)c(N(CCOC)C(=O)c2ccc([N+](=O)[O-])c(C)c2)c(=O)[nH]c1=O,-1.5,nt,nt,nt,-6.5,
COc1ccccc1NC(=O)c1oc2ccccc2c1NC(=O)c1cc(OC)c(OC)c(OC)c1,1.6,nt,19.0,nt,-0.5,
O=C1CC(c2cccc(Cl)c2)Cc2nc(N3CCN(c4ccccc4)CC3)ncc21 (configuration not stated),-1.6,-22.1,-52.3,0.6%,-0.9,
COc1ccc(C2C(C#N)=C(N)OC3=C2C(=O)CC(C)(C)C3)cc1OC (configuration not stated),-1.0,-2.8,nt,1.1%,2.2,
CCOc1cc(C(=S)N2CCOCC2)ccc1OC(=O)/C=C/c1ccc(OC)c(OC)c1,0.6,-0.9,-25.9,-2.7%,nt,
Cc1nc2cc(C(=O)OCC(=O)N(CC(C)C)C3CCS(=O)(=O)C3)ccc2n1-c1ccccc1 (configuration not stated),2.7,10.9,-4.5,-3.9%,7.0,
CCn1c(SC)nnc1-c1c[nH]c2ccccc12,0.0,2.6,nt,1.9%,2.0,
Cc1ccc(CN2C(=O)[C@H]3Cc4c([nH]c5ccccc45)C(C)(C)N3C2=O)cc1,-1.9,nt,nt,11.8%,75.4,
Cc1c(Br)c([N+](=O)[O-])nn1CC(=O)NCCc1c[nH]c2ccccc12,2.1,-1.3,nt,5.7%,-2.8,
O=C(c1cc(Cl)c(=O)n(Cc2ccc(Cl)cc2)c1)N1CCOCC1,0.3,0.3,-35.8,-2.0%,-13.5,
COc1ccc(/C=C/C(=O)NC(=S)Nc2ccc(N3CCN(C(C)=O)CC3)cc2)cc1,-0.8,nt,nt,-8.1%,-0.5,
Cc1cccc(CC(=O)N2CCC(n3nccc3NC(=O)C3CC3)CC2)c1,1.4,nt,nt,nt,?,
CCN(CC(=O)Nc1ccc(NC(C)=O)cc1)C(=O)/C=C/c1cn(Cc2ccccc2)nc1-c1cccnc1,3.2,nt,nt,nt,-12.7,
O=C(NC12CC3CC(CC(C3)C1)C2)c1cccnc1,-4.9,2.1,-14.7,4.3%,-5.3,Arbovirus anti repeat=4.3
